Bioassay records deposited in PubChem BioAssay by National Center for Advancing Translational Sciences (NCATS).
StopGo reporter = lowers the luciferase signal of an FMDV 2A StopGo reporter | human cells with a luciferase reporter of 2A StopGo recoding; control for the full effect not named in the record | Potency, µM (titrated, usually from 57.9 µM), for inactives: top-dose signal change, negative = less light | 410,000 compounds, 1.2% hits | AID 1159524; active = well fitted falling curve with a large enough effect; inconclusive = small, poorly fitted or top-dose-only effect; inactive = no such curve, though single readings can be large or run the other way; tested in HEK293T cells; further: on the % scale 0 is the no-effect control and ±100 the full control effect; nearly all actives have a fitted effect of over 45% in size; luciferase light after 4 h
NS1 inh = influenza NS1 inhibition; S. cerevisiae slowed by influenza A NS1, growth recovery by OD600; Potency, µM (top dose mostly 46.1 µM), for the others: at the top dose activity, positive = more growth; 270,000 compounds, 0.4% hits; AID 2326; active means well fitted rising curve with a large enough effect; inconclusive means small, poorly fitted or top-dose-only effect; inactive means no such curve, though single readings can be large or run the other way; further: nearly all actives have a fitted effect of over 50% in size
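Read-out: OD600 growth recovery of NS1-expressing budding yeast. Cells grown overnight at 30C in -URA glucose medium, washed, resuspended and diluted 1:100 in 2% galactose assay medium, pH 6.0. Same strain lacking NS1 served as positive control.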
Marburg entry inh = inhibitors of Marburg virus binding or cell entry; Marburg virus pseudotyped entry inhibition, cell reporter; control for the full effect not named in the record; about a third of the inactives were read at about 46 µM; Potency, µM (series often up to 37.8 µM), for the others: at the highest dose activity change, negative = inhibition, actives largely listed as inhibitors; 300,000 compounds, 1.8% hits; active = well fitted inhibition curve with a large enough effect; inconclusive = small, poorly fitted or top-dose-only effect, or effect the other way; inactive = flat fitted curve, though single readings scatter; tested in HEK293 cells; about a fifth of its hits are not listed in these tables; further: on the % scale 0 is the no-effect control and ±100 the full control effect; luciferase read-out
RE007 growth inh = less growth of the S. pombe RE007 Vpr strain | S. pombe RE007 Vpr strain, BacTiter-Glo ATP luminescence, 24 h; control for the full effect not named in the record | Potency, µM (highest dose often 92.2 µM), for the others: at the top dose activity change, negative = less growth | 360,000 compounds, 0.21% hits; active = well fitted falling curve with a large enough effect; inconclusive = small, poorly fitted or top-dose-only effect; inactive = no such curve, though single readings can be large or run the other way;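 further: on the % scale 0 is the no-effect control and ±100 the full control effect; nearly all actives have a fitted effect of over 50% in size; the assay follows cell death caused by Vpr and the record does not say whether a fall means rescue or toxicity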
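Fission yeast RE007 carrying one integrated HIV-1 vpr copy, seeded at OD 0.01 in PMG+AL medium with 23 nL pinned compound. Grown 24 h at 30 degrees; viability read by BacTiter-Glo luminescence after 5 min.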
SARS PLpro yeast = SARS-CoV PLP inhibition in yeast | 330,000 compounds, 0.19% hits | AID 485353 | Potency, µM (titrated, usually from 32.9 µM), for inactives: at the highest dose activity, positive = growth rescue | S. cerevisiae expressing SARS-CoV PLpro, growth rescue; control for the full effect not named in the record; active means well fitted rising curve with a large enough effect; inconclusive means small, poorly fitted or top-dose-only effect; inactive means no such curve, though single readings can be large or run the other way; further: 0% is about no effect; nearly all actives have a fitted effect of over 55% in size; growth read by luminescence after 48 h
Cruzain Triton = inhibitors of Trypanosoma cruzi cruzain with detergent; AID 1478; 200,000 compounds, 0.43% hits; purified cruzain, Z-FR-AMC fluorescence, 0.01% Triton; P25779; Potency, µM, for the others: max response, negative = inhibition, most hits filed as inhibitors;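 further: plate controls were neutral wells for no effect and buffer without enzyme for full effect; nearly all actives have a fitted effect of over 40% in size; top concentration of the series not given in the record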
Target sequence (P25779 123-467 limits assumed): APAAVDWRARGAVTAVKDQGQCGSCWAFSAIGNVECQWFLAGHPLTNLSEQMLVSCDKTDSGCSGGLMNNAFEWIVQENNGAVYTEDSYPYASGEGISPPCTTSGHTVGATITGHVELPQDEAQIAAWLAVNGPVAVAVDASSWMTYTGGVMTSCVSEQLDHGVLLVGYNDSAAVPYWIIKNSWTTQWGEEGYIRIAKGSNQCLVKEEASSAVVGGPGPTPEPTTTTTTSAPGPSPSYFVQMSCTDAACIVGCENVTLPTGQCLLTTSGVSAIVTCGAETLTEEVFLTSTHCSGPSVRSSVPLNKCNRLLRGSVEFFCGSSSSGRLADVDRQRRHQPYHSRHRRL
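Read-out: AMC fluorescence (360 nm excitation, 450 nm emission), four reads over 2 min, first-to-third difference used. Conditions: cruzain 1.5 nM, Z-FR-AMC 2 uM, pH 5.5 acetate, 5 mM DTT, 0.01% Triton X-100.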
Cruzain noTriton = blocks cruzain activity in detergent-free assay; purified cruzain, Z-FR-AMC fluorescence, no detergent; Potency, µM, for inactives: max response, negative = inhibition, usual class: inhibitors; 200,000 compounds, 2.3% hits; AID 1476;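 further: plate controls were enzyme without inhibitor for no effect and buffer without enzyme for full effect; nearly all actives have a fitted effect of over 40% in size; top concentration of the series not given in the record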
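Purified cruzain at 1.5 nM, pre-incubated 15 min with compound at room temperature in 100 mM sodium acetate pH 5.5, 5 mM DTT, 0.00005% Triton X-100. Reaction started with 2 uM Z-FR-AMC; AMC fluorescence increase over 60 s gives rate.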
Lassa entry inh = Lassa virus entry inhibition | Potency, µM (highest dose often 37.9 µM), for inactives: top-dose activity change, negative = inhibition, most hits filed as inhibitors | Lassa virus pseudotype entry inhibition, cell reporter; control for the full effect not named in the record | 300,000 compounds, 1.2% hits | AID 540256; active means well fitted inhibition curve with a large enough effect; inconclusive means small, poorly fitted or top-dose-only effect, or effect the other way; inactive means flat fitted curve, though single readings scatter; tested in HEK293 cells; further: on the % scale 0 is the no-effect control and ±100 the full control effect; nearly all actives have a fitted effect of over 50% in size; luciferase read-out
* marks the source's active call; other numbers are inactive results; ? = inconclusive; · = not tested or not shown; & = joins results of further samples; [ ] = remark or other dose. Unless noted, the call rests on the fitted dose curve; in most records, active means well fitted curve in the direction sought with a large enough effect; inconclusive means small, poorly fitted or top-dose-only effect, or another doubt; inactive means no such curve, though single readings can be large; an effect the other way counts as inactive or inconclusive. Potency means the concentration at half of the fitted maximal effect.

SMILES	StopGo reporter	NS1 inh	Marburg entry inh	RE007 growth inh	SARS PLpro yeast	Cruzain Triton	Cruzain noTriton	Lassa entry inh
CC1CCN(c2nc(-c3ccncc3)nc3ccccc23)CC1	?	-250%	?	?	-31%	-3.7%	-12%	9%
Oc1cccc(C=NNc2ccccn2)c1	37%[activator]	·	-1%	-13%	·	·	·	?
CCCC1(C(=O)O)NC(c2cccc(OC)c2O)C2C(=O)N(c3ccccc3)C(=O)C21 (stereo not given)	-16%	?	-5%	-6%	4%	1.6%	1%	·
CC(C)(C)c1cc(-c2ccco2)c(C#N)c(SCC#N)n1	-11%	4%	-22%&-22%	0%	1%	-11%	-26%	-5%
N[C@@H](Cn1cc(I)c(=O)[nH]c1=O)C(=O)O	-5%	-4%	?	·	·	-3.6%&-0.9%	1%&4%	·
Cc1ccc(C(c2sc3nc(-c4ccco4)nn3c2O)N2CCCCC2)cc1 (stereo not given)	25%	·	·	·	·	-3.1%	-4%	13%[46.1 µM]
O=C(CNCC1CCCO1)Nc1ccccc1-n1cccc1 (stereo not given)	·	-4%	-2%	4%	-14%	0.7%	-15%	-2%
COc1ccc(-n2nc(C(=O)NCC(=O)N3CCCCCC3)c3ccccc3c2=O)cc1Cl	-4%	20%	?	6%	-3%	·	·	?
O=C(N/N=C/c1ccc(O)cc1)c1cc[n+](Cc2ccccc2)cc1	8%	-16%	1%	-3%	14%	-2.2%	-3%	2%
CC(C)(C)c1ccc(S(=O)(=O)NCc2ccc(C(=O)NCC3CCCO3)cc2)cc1 (stereo not given)	-18%	-7%	·	0%	3%	·	·	·
CCOc1ccc(S(=O)(=O)Nc2cccc(-c3ccc(OCC)nn3)c2)cc1	-21%	·	·	·	·	-6.3%	-9%	-22%[46.1 µM]
C[n+]1cccc(C(=O)NCC2CCCO2)c1 (stereo not given)	5%	30%	7%	-12%	8%	0.4%	-12%	-2%
COc1cccc(C(=O)N2CCN(Cc3ccccc3[N+](=O)[O-])CC2)c1	-24%	8%	21%	5%	1%	-3.6%	-3%	1%
COc1ccc(CN2CCC(n3nccc3NC(=O)c3cccc(F)c3)CC2)cc1O	3%	-2%	8%	18%	5%	·	·	18%
Cc1cc(=O)c2ccccc2[nH]1	9%	-6%	24%	15%	-4%	2.0%	0%	?
O=C1CN(C(=O)NCC(=O)N2CCCC2)c2ccccc2N1	15%	0%	·	7%	1%	·	·	·
CSc1cccc(NC(=O)c2ccccc2N(C)S(C)(=O)=O)c1	4%	3%	1%	-6%	4%	-1.2%	3%	-18%
CCc1ccc2c(c1)[C@]1(C(=O)N2)[C@@H]2C(=O)N(Cc3ccccc3)C(=O)[C@@H]2[C@@H]2CCCN21	-6%	-9%	-8%	-13%	1%	-3.7%	?	?
CCOC(=O)c1cn(Cc2ccccc2)nn1	17%	1.4µM*	3%	10%	-2%	-2.6%	-5%	-2%
CC(=O)c1sc(NC(=O)c2cccc(C)c2)nc1C	23%	·	?	-2%	-2%	·	·	·
COCCNCC(=O)NC12CC3CC(CC(C3)C1)C2	-3%	0%	3%[46.1 µM]	23%	-4%	2.0%	-2%	-11%
Cc1nnc(Nc2ccccc2)n(N)c1=O	7%	1%	11%	9%	1%	13%	0%	23%
COc1cc(N=c2ssnc2Cl)cc(OC)c1OC	?	-142%	6%&-6%	-16%	-24%	-21%	-9%	0%
CC1(C)CSC(=NCc2ccccc2)N1C(=O)c1cccc([N+](=O)[O-])c1	-1%	-1%	1%	?	17%	-2.1%	6%	3%
CC(=O)c1cnn(-c2cc(Oc3ccc(F)cc3)ncn2)c1C	-3%	3%	5%	-17%	3%	1.1%	9%	-21%

Compound profiles, as listed above:
Profile of COc1cc(N=c2ssnc2Cl)cc(OC)c1OC : StopGo reporter: ?; NS1 inh: -142%; Marburg entry inh: 6%&-6%; RE007 growth inh: -16%; SARS PLpro yeast: -24%; Cruzain Triton: -21%; Cruzain noTriton: -9%; Lassa entry inh: 0%
Profile of Cc1nnc(Nc2ccccc2)n(N)c1=O : StopGo reporter: 7%; NS1 inh: 1%; Marburg entry inh: 11%; RE007 growth inh: 9%; SARS PLpro yeast: 1%; Cruzain Triton: 13%; Cruzain noTriton: 0%; Lassa entry inh: 23%

Additional records.
SMILES	StopGo reporter	NS1 inh	Marburg entry inh	RE007 growth inh	SARS PLpro yeast	Cruzain Triton	Cruzain noTriton	Lassa entry inh
CCC(NC(=O)c1cc(COc2ccc(F)cc2Cl)on1)c1ccncc1 (stereo not given)	-15%	-28%	·	4%	-4%	·	·	·
CCOc1ccccc1NC(=O)c1ccc(F)c(S(=O)(=O)NCc2ccc3c(c2)OCO3)c1	12%	·	·	·	·	-1.6%	-15%	-17%[46.1 µM]
CCC(=O)c1ccc(OCC(=O)NCCc2ccccn2)cc1	2%	·	8%[46.1 µM]	-2%	1%	·	·	-1%[46.1 µM]
CCc1ccc(NC(=O)CSc2nc(-c3ccccc3Cl)nc3c2Cc2c(CO)cnc(C)c2O3)cc1	-22%	·	·	·	·	-2.8%	16%	-1%[46.1 µM]
COc1ccc(S(=O)(=O)N2CCOCC2)cc1NC(=O)/C=C/c1ccc(F)cc1	-27%	·	-1%	6%	-5%	·	·	-11%
O=C(Nc1ccc(Cl)cc1F)C1CC(=O)N(Cc2ccco2)C1 (stereo not given)	-14%	·	23%	-5%	-7%	·	·	5%
CCOC(=O)C1(Cc2ccccc2Cl)CCN(C(=O)c2cnccn2)CC1	43%[activator]	-11%	10%[46.1 µM]	-5%	0%	·	·	?
Cn1c(=O)c(C(=O)CN2CC(=O)Nc3ccccc32)c(N)n(Cc2ccccc2)c1=O	12%	·	24%[46.1 µM]	4%	-3%	·	·	13%
Cc1cc(C=C2C(=O)N(C)C(=S)N(C)C2=O)c(C)n1-c1ccncc1	?	3%	·	-4%	1%	·	·	·
Brc1ccc(OCCOc2cccc3cccnc23)cc1	-3%	3%	7%	9%	-6%	-4.1%	-8%	12%
CC1=C(C(=O)OCc2ccccc2)C(c2ccc3ccccc3c2)NC(=O)N1CCCCCC(=O)O (stereo not given)	-23%	3%	5%	5%	-1%	?	?	-17%
CC(C)CN(C(=O)COc1cccc(-n2cnnn2)c1)C1CCS(=O)(=O)C1 (stereo not given)	-7%	4%	7%[46.1 µM]	-7%	0%	·	·	16%
COC(=O)CC1C(=O)NCCN1C(=O)CSc1nnc(Nc2ccc(C)cc2)s1 (stereo not given)	6%	5%	22%	-14%	13%	-0.2%	-2%	-9%
CCN(C(=O)CN1CCN(c2ccc(OC)cc2)CC1)c1c(N)n(Cc2ccccc2)c(=O)[nH]c1=O	-8%	-1%	-3%&12%	3%	1%	-0.2%	1%	2%
Cc1ccccc1NC(=O)Cn1c(=O)n(Cc2ccccc2)c(=O)c2c(C)c(C)sc21	-29%&-16%	3%	-2%[46.1 µM]	-15%	-24%	-1.3%&-1.2%	2%&3%	7%[46.1 µM]
COc1ccc(-n2c(Cc3cccn3C)nnc2SCC(=O)NC2CCCCC2)cc1	0%	15%	-10%&-10%	-2%	4%	-2.4%	-7%	9%
CC(=O)Nc1cccc(C(=O)N(Cc2ccccc2)Cc2ccccc2)c1	13%	-3%	·	1%	-1%	·	·	·
CCOc1cc(/C=N/NC(N)=O)cc(Br)c1OCc1ccccc1F	?	-3%	-7%	4%	10%	-11%	?	-3%
COc1ccc2cc(C(=O)N/N=C/c3cc(OC)c(OC)c(OC)c3)[nH]c2c1	6%	-2%	·	2%	0%	·	·	·
COc1cc(CN2CCC(N3CCC(C(=O)N4CCCC4)CC3)CC2)cc2c1OCO2	-9%	2%	?	3%	0%	·	·	-14%[46.1 µM]
O=S(=O)(c1cccc(Cl)c1)c1nnn2c1nc(NCc1ccc3c(c1)OCO3)c1sccc12	-17%	·	·	·	·	-0.4%	12%	1%[46.1 µM]
CCn1c(=O)c2sccc2n2c(CCC(=O)Nc3ccc(F)cc3)nnc12	-12%	·	9%[46.1 µM]	·	·	-1.7%	3%	-17%[46.1 µM]
O=C(Cc1ccccc1)N1CCN(c2ccccc2F)CC1	18%	-21%	-7%	5%	-1%	·	·	0%
CCOc1ccc(CC(=O)Nc2sc(Cc3ccccc3)cc2C(N)=O)cc1OCC	6%	-5%	?	18%	3%	-9.3%	0%	3%
O=Cc1cn(CC(=O)N2CCCc3ccccc32)c2ccccc12	?	1%	?	0%	-2%	-12%	-17%	-2%
COc1ccc(-c2c(C)cc3oc(=O)cc(-c4ccccc4)c3c2C)cc1F	-30%	·	·	-3%	-2%	2.7%	40µM*	·
Cc1ccccc1C(=O)Nc1cccc(OCc2cc(=O)n3c4c(sc3n2)CCCC4)c1	-13%	·	-6%[46.1 µM]	·	·	-1.8%	-6%	13%[46.1 µM]
Nc1cc(Br)c(N)c(Br)c1	9%	0%	?	0%	-7%	-0.5%	-10%	4%
CCOC(=O)C1Sc2ccccc2NC1=O (stereo not given)	13%	·	20%[46.1 µM]	6%	-1%	·	·	-17%[46.1 µM]
CC(C)CC(=O)N1CCN(S(C)(=O)=O)CC1	0%	-6%	?	10%	-4%	-0.4%	5%	0%

2 compounds from above with just SARS PLpro yeast:
| Structure | SARS PLpro yeast |
| --- | --- |
| CCN(C(=O)CN1CCN(c2ccc(OC)cc2)CC1)c1c(N)n(Cc2ccccc2)c(=O)[nH]c1=O | 1% |
| Cc1ccccc1NC(=O)Cn1c(=O)n(Cc2ccccc2)c(=O)c2c(C)c(C)sc21 | -24% |

Compounds above containing a nitro group on carbon:
SMILES	StopGo reporter	NS1 inh	Marburg entry inh	RE007 growth inh	SARS PLpro yeast	Cruzain Triton	Cruzain noTriton	Lassa entry inh
COc1cccc(C(=O)N2CCN(Cc3ccccc3[N+](=O)[O-])CC2)c1	-24%	8%	21%	5%	1%	-3.6%	-3%	1%
CC1(C)CSC(=NCc2ccccc2)N1C(=O)c1cccc([N+](=O)[O-])c1	-1%	-1%	1%	?	17%	-2.1%	6%	3%

An unsorted share of the library, and some 4.7% of all compounds hit somewhere here.
